# Bioassay records deposited in PubChem BioAssay by several laboratories.
# GALR2 ag – GALR2 (human) receptor agonism; GALR2-expressing cells, agonist activation read-out; 140,000 compounds, 0.48% hits; AID 803; activation, %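 (tested at 5 µM)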; O43603;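 active = above mean plus 3 SD of all compounds, about 5% in these data, not always enough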;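 also: 0% = vehicle buffer wells and 100% = reference agonist at full effect; tested in CHO reporter cells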
# HSV replic up – increases HSV replication in cells | 220,000 compounds, 0.005% hits | maximum fold increase | AID 1956 | HSV replication augmentation in cells, fold increase;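 active = peak rise of 1.5-fold or more in the series; tested in PC3 cells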;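 also: first round at 10 µM; read as green reporter fluorescence; hits show the peak of a series up to 25 µM; 1 = signal of infected wells without compound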
# Insulin prom inh – TRM-6 insulin promoter activity inhibition | 130,000 compounds, 0.9% hits | TRM-6 cells (human fetal islet line), insulin promoter-eGFP reporter, imaging; reporter expression induced with tamoxifen | inhibition, % at 2 µM;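 active = inhibition above the mean plus 3 SD, with well images judged a real hit on visual review, cut at about 60% in these data, passing the limit was not always enough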
# PKD1 kinase inh – PKD1 (human) kinase inhibition. PKD1 kinase fluorescence polarization assay. inhibition, %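 (about 10 µM by stock and volumes)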. 200,000 compounds, 0.056% hits. AID 797;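 active = inhibition of 50% or more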;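 also: controls were vehicle for no effect and a reference inhibitor for full effect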
# RGS16-Gao – RGS16-Galphao interaction regulator (human). binding response (% of control), % at 10 µM. bead-based flow cytometry RGS16-Galphao binding, fluorescence; actives lie on both sides. 220,000 compounds, 0.38% hits;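 active = below 25% or above 175%, edge rows of some plates excepted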;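 also: Galphao activated by GDP with aluminum fluoride before binding; 100% = wells without compound and 0% = beads without RGS; some results beyond the cut were filed as inactive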
# Insulin prom inh cell count – second read-out of Insulin prom inh, no call of its own (marks repeat the call); normalized cell count, %; measured here: cell count, toxicity; reference of the scale not given here;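 cells exposed to compound for 48 h; stained nuclei by imaging scaled within each plate; lower means fewer cells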
# HSV replic up primary fold – also measured in HSV replic up; calls as there; fold increase; compound at 10 µM; measured here: primary screen fold increase 10 uM; tested in PC3 cells;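 GFP signal in the first replicate; 1 = infected wells without compound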
# The depositor's hits bear a star; i = inactive; . = no result given.
# The opening four compounds, to show the layout:
# Each structure is followed by: RGS16-Gao, HSV replic up primary fold, PKD1 kinase inh, Insulin prom inh cell count, HSV replic up, Insulin prom inh, GALR2 ag
COc1cc(/C=N/NC(=O)c2cc(C34CC5CC(CC(C5)C3)C4)[nH]n2)ccc1O
  114.1, 0.97, -2.1, 62.0, i, 0.0, -2.2
COC(=O)c1c(NC(=O)Cc2cccs2)sc(C(=O)N2CCCCC2)c1C
  97.7, ., -3.2, 73.8, ., 25.7, 3.0
Cc1nnc2n1NC(c1ccc(Cl)cc1)C(C(=O)N(C)C1CCCCC1)S2 (stereo not given)
  93.8, 1.08, 6.4, ., i, ., -0.1
Cc1sc(NC(=O)C2CCCCC2C(=O)O)c(C(N)=O)c1C (stereo not given)
  96.1, 1, 15.2, 83.2, i, -26.9, -1.5

# The listing (from the top)
# Each structure is followed by: RGS16-Gao, HSV replic up primary fold, PKD1 kinase inh, Insulin prom inh cell count, HSV replic up, Insulin prom inh, GALR2 ag
COc1cc(/C=N/NC(=O)c2cc(C34CC5CC(CC(C5)C3)C4)[nH]n2)ccc1O
  114.1, 0.97, -2.1, 62.0, i, 0.0, -2.2
COC(=O)c1c(NC(=O)Cc2cccs2)sc(C(=O)N2CCCCC2)c1C
  97.7, ., -3.2, 73.8, ., 25.7, 3.0
Cc1nnc2n1NC(c1ccc(Cl)cc1)C(C(=O)N(C)C1CCCCC1)S2 (stereo not given)
  93.8, 1.08, 6.4, ., i, ., -0.1
Cc1sc(NC(=O)C2CCCCC2C(=O)O)c(C(N)=O)c1C (stereo not given)
  96.1, 1, 15.2, 83.2, i, -26.9, -1.5
Brc1ccc(-c2csc(-c3c[nH]c4ccccc34)n2)cc1
  102.7, 0.96, -14.8, 98.8, i, 25.9, -0.8
Cc1ccc(NC(=O)c2ccco2)c(NC(=O)Cc2cccs2)c1
  99.2, 1.12, -1.5, 117.7, i, -5.6, -0.8
CCOCCCn1c(=NC(C)=O)c(C(=O)OCC)cc2c(=O)n3ccccc3nc21
  93.4, 0.91, 0.5, 63.9, i, 50.6, 7.8*
Cc1ccc(N(C(=O)c2cnccn2)C(C(=O)NC2CCCCC2)c2ccc(O)cc2)cc1 (stereo not given)
  84.6, 1.07, -0.3, ., i, ., .
CCN(CC)S(=O)(=O)c1ccc(N(C)Cc2ccc(C(F)(F)F)cc2)nc1
  101.9, 0.91, -1.7, 75.5, i, -238.5, -2.0
O=C(COC(=O)CN1C(=O)C2CCCCC2C1=O)Nc1cc(S(=O)(=O)N2CCOCC2)ccc1Cl (stereo not given)
  113.8, 0.88, -6.6, 154.9, i, 7.1, -0.7
CC(C)c1ccc(NC(=S)Nc2ccc(OC(F)(F)F)cc2)cc1
  100.4, 1.21, 2.5, ., i, ., .
Cc1nnc(NC(=O)Cn2nc(C)c3ccccc3c2=O)s1
  104.7, 0.97, -5.2, 151.2, i, 36.6, .
CC(=O)Nc1cccc(-c2csc(NCc3ccco3)n2)c1
  114.1, 0.96, 6.8, 102.2, i, 43.8, -2.0
O=C(O)/C(=C\c1cccs1)Sc1nnc(-c2ccc(F)cc2)o1
  100.7, 0.95, 6.3, 116.2, i, 21.4, .
COc1ccccc1/C=N/N1C(=O)C2C3C=CC(CC3)C2C1=O (stereo not given)
  107.8, 1.02, -5.9, ., i, ., .
CN(C)C=NC(=O)c1ccc([N+](=O)[O-])c(CS(=O)(=O)c2ccc(Cl)cc2)c1
  104.5, 0.92, -14.8, 90.3, i, -16.7, -1.8
Cc1nc2ccccc2c(=O)n1NC(=O)CCC(=O)O
  99.4, 1.15, 4.0, 95.2, i, 20.9, .
Cc1cccc(N2CCN(C(=O)c3ccc(Cl)c(S(=O)(=O)NCc4ccco4)c3)CC2)c1C
  106.3, ., -0.9, ., ., ., 1.0
O=C(O)c1ccc(NC(=O)c2cccc(N3C(=O)C4C5CCC(C5)C4C3=O)c2)cc1 (stereo not given)
  53.9, 0.94, -2.8, 112.2, i, 28.6, -0.7
Cc1cc(N2CCN(C3CCCC3)CC2)n2c(nc3ccccc32)c1C#N
  107.3, 0.99, -0.5, 92.1, i, -31.2, -0.3
CC(=O)OCC(=O)Nc1ccc(Cl)cc1Cl
  113.4, 0.86, -3.0, 43.9, i, -200.0, -0.2
Clc1ccccc1C1=CC(c2ccco2)n2ncnc2N1 (stereo not given)
  92.7, 0.96, ., ., i, ., .
Cc1ccc(NC(=S)N(CCN2CCCCC2)Cc2ccco2)cc1Cl
  98.2, 0.87, -3.2, ., i, ., .
COc1ccccc1C(=O)NCCCn1cc(Br)c(C)n1
  94.9, 0.81, -2.4, 113.7, i, 44.8, -2.6
Cc1ccc(-c2nc(SCC(=O)NCCN3C(=O)CSC3=O)[nH]c2-c2ccc(C)cc2)cc1
  100.6, ., -4.7, 191.7, ., -16.3, -1.7
COc1ccc(C(=O)NCCC2=CCCCC2)cc1
  97.1, 0.94, 2.9, 135.3, i, -20.6, -1.4
FC(F)(F)c1cnc(/C=C/Nc2ccccc2Cl)c(Cl)c1
  97.7, 0.83, -5.9, 91.5, i, -44.0, -1.0
COc1cccc(-n2c(SCC(=O)NCCc3ccccc3)nnc2-c2ccoc2C)c1
  100.7, 0.84, -8.4, 60.0, i, 6.2, -0.6
O=C(O)c1ccc(NC(=O)c2cccs2)cc1
  101.9, 1.01, -4.0, 117.1, i, 37.5, -3.0
Cc1nc(-c2c(C(F)(F)F)noc2-c2ccc(O)cc2O)cs1
  102.7, 1.08, -1.6, 157.3, i, 17.1, -1.9

# Fetched one by one from the list above, 4 records:
# Each structure is followed by: RGS16-Gao, HSV replic up primary fold, PKD1 kinase inh, Insulin prom inh cell count, HSV replic up, Insulin prom inh, GALR2 ag
O=C(COC(=O)CN1C(=O)C2CCCCC2C1=O)Nc1cc(S(=O)(=O)N2CCOCC2)ccc1Cl (stereo not given)
  113.8, 0.88, -6.6, 154.9, i, 7.1, -0.7
COc1ccc(C(=O)NCCC2=CCCCC2)cc1
  97.1, 0.94, 2.9, 135.3, i, -20.6, -1.4
FC(F)(F)c1cnc(/C=C/Nc2ccccc2Cl)c(Cl)c1
  97.7, 0.83, -5.9, 91.5, i, -44.0, -1.0
Cc1cccc(N2CCN(C(=O)c3ccc(Cl)c(S(=O)(=O)NCc4ccco4)c3)CC2)c1C
  106.3, ., -0.9, ., ., ., 1.0

# New compounds follow
# Each structure is followed by: RGS16-Gao, HSV replic up primary fold, PKD1 kinase inh, Insulin prom inh cell count, HSV replic up, Insulin prom inh, GALR2 ag
CCOC(=O)c1nc(NNC(C)=O)sc1C
  100.1, 1.2, -2.9, 85.6, i, 17.6, .
CCOC(=O)c1c(C=O)c(C)n(Cc2ccc(Cl)cc2)c1C
  100.7, 0.9, -5.8, 84.5, i, -10.0, -1.4
NC(=O)C1CCN(CC(=O)N2c3ccccc3CCc3ccccc32)CC1
  99.5, 1.03, -8.7, 132.2, i, 2.6, 0.3
Cc1ccc(OCCN2CCCCCC2)c(C)c1
  64.1, 1.05, -12.1, 84.7, i, -57.7, -0.5
CCC(=O)Nc1ccc(N2CCCCC2)cc1
  92.1, 0.9, -4.5, 101.9, i, -11.4, -1.9
Cc1ccc(S(=O)(=O)NCC23C=CC(O2)C2C(=O)N(c4ccccc4)C(=O)C23)cc1 (stereo not given)
  108.2, 0.99, -5.4, 108.0, i, -8.1, -2.6
Cc1ccc(CNC(=O)Cc2csc(Nc3nc(=S)[nH]c4ccccc34)n2)cc1
  98.2, ., 3.3, 102.1, ., -9.1, -1.0
